Screening data from PubChem.
Anthrax LT inh: qHTS Assay for Anthrax Lethal Toxin Internalization; Cells, anthrax lethal toxin internalization, FRET ratio (460/530); Potency, µM (series often up to 40 µM), without a hit: top-dose activity change, negative = inhibition, usual class: inhibitors; 70,000 tested, 0.67% active; AID 912, 2007; active = well fitted falling ratio curve with the 530 nm signal flat; inconclusive = other ratio curves, or a change in one channel alone; inactive = flat curves in the ratio and both channels; the % refers to the ratio; also: % is scaled to controls: 0 for no effect and ±100 for the full control effect; nearly all actives have a fitted effect of over 50% in size; tested in ME-180 cells; beta-lactamase reporter
SmPrx2 inh: Schistosoma Mansoni Peroxiredoxins (Prx2); Schistosoma mansoni peroxiredoxin 2 (Prx2); S. mansoni Prx2 activity coupled to TGR/GSH (TGR is thioredoxin glutathione reductase), NADPH fluorescence loss, qHTS; some inactives read as strong as hits; Potency, µM; 65,000 tested, 0.07% active; AID 448, 2006; active means full or partial inhibition curve with a strong effect at the top dose; inconclusive means weaker partial or single-point curve; inactive means no accepted curve; also: series up to 57 µM; many of its hits are not listed in these tables
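Activity is read as the drop in NADPH fluorescence (365/450 nm), recorded every 30 sec for 8 min after H2O2 addition. Prx2 is coupled to TGR-driven NADPH oxidation through glutathione, in phosphate buffer pH 7.4.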
Numbers without * were called inactive; u = inconclusive; x = no result given; & = joins results of further samples; [ ] = remark or other dose. Potency is read from the fitted curve at half-maximal effect. Only part of the results is shown. The share of hits here may be higher or lower than overall.

Values run as follows: Anthrax LT inh | SmPrx2 inh
CCN(CC)S(=O)(=O)c1ccc(/C(O)=C(\C#N)c2nc3ccccc3n2C)cc1
    u | >57
COC(=O)[C@@]1(Cc2ccccc2)[C@H]2c3cc(C(=O)N4CCCC4)n(Cc4c(CO)[nH]cc(C)c4=O)c3C[C@H]2CN1C(=O)c1ccccc1
    7% | >57
COc1cccc(N2C(=O)CC(c3c[nH]c4ccccc34)C2=O)c1 (stereo not given)
    -11% | >57
Cc1cccc2cc(CN(CC3CCCO3)C(=O)c3ccco3)c(=O)[nH]c12 (stereo not given)
    u | >57
COC(=O)COc1ccc(S(=O)(=O)NCCC2=CCCCC2)cc1C
    -25% | >57
COc1ccc(CNC(=O)C2CCCN2C(=O)NC2CCCCC2)cc1 (stereo not given)
    0% | >57
Cn1c(C(=O)O)c(CC(=O)Nc2ccc3c(c2)OCCO3)c2ccccc21
    -1% | >57
Cc1ccc(Cl)cc1NC(=O)CC(O)(C(F)(F)F)C(F)(F)F
    u | >57
CCc1cc(=O)oc2cc(C)cc(OC(=O)c3ccco3)c12
    1% | >57
CCOC(=O)NC1(NC2CCCCC2)Oc2ccccc2O1
    -9% | >57
Clc1ccccc1C(Nc1ncccn1)Nc1ncccn1
    u | >57
COc1ccc(N=C(C)C2=C(O)COC2=O)cc1
    12% | x
COC(=O)CCC(=O)Nc1ccc(Cl)c(Cl)c1
    -9% | >57
O=S(=O)(c1ccc(N2CC=C(c3ccccc3)CC2)nc1)N1CCCC1
    u | >57
COc1ccc(C(=O)N2CCCN(C)CC2)cc1S(=O)(=O)N1CCCc2ccccc21
    0% | >57
O=C(OCC(=O)N1CCCc2ccccc21)C1CCN(S(=O)(=O)c2cccs2)CC1
    -4% | >57
O=C(O)c1c(F)c(F)c(F)c(F)c1-c1ccc(Cl)cc1
    -8% | >57
CCOC(=O)c1[nH]nc(-c2c(O)cc(C)cc2O)c1-c1csc(C)n1
    -10% | >57
Cc1nn2c(nc1=O)SCC(c1ccccc1)=N2
    -7% | >57
COc1ccc(OC)c(-c2cc(C(=O)Nc3c(C)n(C)n(-c4ccccc4)c3=O)no2)c1
    -6% | 7.1*
O=c1[nH]c(SCc2cccc([N+](=O)[O-])c2)nc2nc[nH]c12
    -3%[8 µM] | >57
c1ccc(C2COC(c3cccs3)=N2)cc1 (stereo not given)
    u | >57
O=C(c1cnc(N2CCN(c3ncccn3)CC2)c2ccccc12)N1CCN(c2ccccn2)CC1
    u | >57
Cn1c(Cn2c(=O)sc3ccccc32)nnc1SCC(=O)NCc1ccc2c(c1)OCO2
    -2% | >57
COc1cccc(C2(O)CCN(C(=O)c3cccs3)CC2)c1
    -2% | >57
O=C(O)/C=C\c1ccc(O)c(O)c1
    u | >57&>57&>57
CNc1ncnc2ccc(-c3cccc(NS(C)(=O)=O)c3)cc12
    -7% | >57
COC(=O)c1ccc(C(=O)OC)c(NC(=O)COC(=O)C23CC4CC(CC(O)(C4)C2)C3)c1
    15% | >57
O=C(Nn1cnnc1)c1cc2c(s1)CCCCC2
    -12% | >57
CCOc1ccc(OCC)c(S(=O)(=O)N2CCCCC2C)c1 (stereo not given)
    u | >57
COC(=O)c1ccc(Nc2cc(C)nc3ncnn23)cc1
    6% | >57
Cn1cccc1Cc1nnc(SCC(=O)N2CCOCC2)n1CCc1ccccc1
    1% | >57
Cc1cccc2cc(COC(=O)C3CCCCC3)c(=O)[nH]c12
    u | >57
COc1cc(NC(=O)C2CCCCC2)c(OC)cc1NC(=O)c1ccco1
    -2% | >57
Cc1cccc(Cn2c(CN3CCN(Cc4ccccc4)CC3)nc3c2c(=O)[nH]c(=O)n3C)c1
    12% | >57
Cc1ccc2c(c1)[nH]c1c(N3CCN(Cc4ccc5c(c4)OCO5)CC3)ncnc12
    15% | >57
CC(=O)NCCc1ccc(S(=O)(=O)N(C)C2CCS(=O)(=O)C2)cc1 (stereo not given)
    9% | >57
C/C=C/C=O
    -11% | x
CC(C)(C)NC(=O)CN(C(=O)C1(C)CC(=O)N=C2C=CC=CN21)C1CCCC1 (stereo not given)
    9% | >57
O=C(COC(=O)C1CCCO1)Nc1cccc(C(F)(F)F)c1 (stereo not given)
    -11% | >57
CC(C)C1O/C(=N/C(=O)Nc2ccc(Cl)c(Cl)c2)NC1=O (stereo not given)
    u | >57
CCOc1ccc(N(CC(=O)NCc2ccc(F)cc2)S(=O)(=O)c2c(C)noc2C)cc1
    -20% | >57
CCN1CCN(c2nc(C)nc3c2sc(=S)n3C)CC1
    4% | >57
CCN1CCN(C(=O)CSCc2nc(-c3ccc(OC)c(OC)c3)oc2C)CC1
    u | >57
Cc1c(C#N)c(SCC(N)=O)nc2c1CCCC2
    -11% | >57
CCOC(=O)C(NC(C)=O)(OCc1ccc(F)cc1)C(F)(F)F (stereo not given)
    0% | >57
Cc1ccc(S(=O)(=O)NCCC(=O)NC2CCCC2)cc1
    11% | >57
COc1ccc2occ(NC(C)=O)c2c1
    -2% | >57
COc1ccc(Cc2nnc(NC(=O)c3c(-c4ccccc4)noc3C)s2)cc1OC
    10% | >57
CSc1cccc(NC(=O)CN(C)S(=O)(=O)c2ccccc2)c1
    1% | >57
O=C(CN1C(=O)c2ccccc2C1=O)[C@@H](O)CN1C(=O)c2ccccc2C1=O
    u | >57
COc1ccc(NC(=O)C2CC(=O)OC2(C)C)cc1 (stereo not given)
    -3% | >57
Cc1nnc2n(CCc3ccccc3)c(=O)c3c4c(sc3n12)CCCC4
    -3% | >57
COc1ccccc1N(CC(=O)NCCSC(C)(C)C)S(C)(=O)=O
    -42% | x
O=C(CN1CCN(c2ccccn2)CC1)Nc1ccc(Oc2ccccc2)cc1
    10% | >57
CC1S/C(=C(\C#N)C(=O)NCc2ccco2)N(c2ccc(F)cc2)C1=O (stereo not given)
    0% | >57
Cc1cc(NC(=O)Cc2c(F)cccc2Cl)no1
    -11% | >57
CN(C)c1ncc2ncc(=O)n(CCc3ccccc3)c2n1
    -18% | >57
CCOC(=O)c1c(C)n(Cc2ccco2)c2ccc(O)cc12
    -4% | >57
CCn1c(=O)cc(OCC(=O)O)c2ccccc21
    6% | >57

Next part:
Values run as follows: Anthrax LT inh | SmPrx2 inh
O=C(O)CSc1nnc(C2COc3ccccc3O2)n1-c1ccccc1 (stereo not given)
    -9% | x
COc1cc(-c2nc(S(=O)(=O)c3ccccc3)c(N3CCOCC3)o2)cc(OC)c1OC
    u | >57
CN1CCc2[nH]nc(-c3n[nH]c4c3CN(C)CC4)c2C1
    u | >57
COc1cc(S(=O)(=O)N2CCN(c3ccccc3F)CC2)ccc1Cl
    u | >57
CC(C)n1c(NCc2c[nH]c3ccccc23)nc2ccccc21
    -10% | >57
CCCn1c(-c2ccc(F)cc2)nc2c(N(C)CCN(C)C)nc(C)nc21
    -16% | x
COC(=O)c1ccccc1NC(=O)c1cccs1
    -9% | >57
Cc1nn(CC(=O)NCc2cccnc2)c(=O)c2ccccc12
    9% | >57
CC1(C)N=C(c2ccc(Cl)cc2)C(=O)N1
    6% | >57
COc1cccc(/C(O)=C2/C(=O)C(=O)N(CCN3CCOCC3)C2c2cccs2)c1 (stereo not given)
    -4% | >57
COc1c(O)cc2oc3cc(O)c(CC=C(C)C)c(O)c3c(=O)c2c1CC=C(C)C
    u | >57
Cc1cc(C)nc(SCc2nc(N)nc(-c3ccccc3O)n2)n1
    -12% | >57
COC(=O)c1ccc2c(=O)n(NC(C)=O)c(=S)[nH]c2c1
    0% | >57
Cc1cc(S(=O)(=O)NCc2ccc(S(N)(=O)=O)cc2)c(C)s1
    -3% | >57
O=S(=O)(Nc1nc2ccccc2nc1N1CCN(c2ccccn2)CC1)c1ccc(Cl)cc1
    u | >57

5 consecutive entries out of the list so far, for reference:
Values run as follows: Anthrax LT inh | SmPrx2 inh
COc1cccc(/C(O)=C2/C(=O)C(=O)N(CCN3CCOCC3)C2c2cccs2)c1 (stereo not given)
    -4% | >57
COc1c(O)cc2oc3cc(O)c(CC=C(C)C)c(O)c3c(=O)c2c1CC=C(C)C
    u | >57
Cc1cc(C)nc(SCc2nc(N)nc(-c3ccccc3O)n2)n1
    -12% | >57
COC(=O)c1ccc2c(=O)n(NC(C)=O)c(=S)[nH]c2c1
    0% | >57
Cc1cc(S(=O)(=O)NCc2ccc(S(N)(=O)=O)cc2)c(C)s1
    -3% | >57

More records follow:
Values run as follows: Anthrax LT inh | SmPrx2 inh
COc1ccc(NC(=O)CSc2nnc(C(C)C)n2N)cc1
    x | >57
CCCN1C2CCCC1CC(NC(=O)c1ccccc1F)C2 (stereo not given)
    -10% | >57
COC(=O)[C@@]1(Cc2ccccc2)[C@H]2c3cc(C(=O)N4CCCC4)n(Cc4ccc(OC)c(OC)c4)c3C[C@H]2CN1C(=O)c1ccccc1
    u | >57
CCOC(=O)c1oc2ccc(S(=O)(=O)N3CCC(C)CC3)cc2c1C
    x | >57
O=S1(=O)CCC(SCc2nc3sccn3c2Br)C1 (stereo not given)
    4% | >57
Cc1cc(C)nc(-n2nc(C)cc2NC(=O)c2cc(=O)c3ccccc3o2)n1
    -4% | >57
c1csc(C2C3=C(Nc4ncnn42)c2ccccc2OC3)c1 (stereo not given)
    -15% | >57
O=C1c2oc3ccccc3c(=O)c2C(c2ccc(Cl)cc2)N1c1ncccn1 (stereo not given)
    7% | >57
OCCn1c(SCCOc2ccccc2F)nc2ccccc21
    0% | x
CC1CCN(S(=O)(=O)c2ccc(Cl)cc2)CC1
    -18% | x
COc1ccc(NC(=O)CSc2nnc(Cc3cccn3C)n2-c2ccc(OC)cc2)cc1
    -6% | >57
CCN(CC(=O)NCc1ccc(F)cc1)Cc1nc2ccccc2c(=O)[nH]1
    0% | >57
O=c1[nH]c(SCc2c(Cl)c(Cl)c(Cl)c(Cl)c2Cl)nc(=S)[nH]1
    0%[8 µM] | >57
CCCc1cc(=O)n2[nH]c(-c3ccc(C)cc3)cc2n1
    -2% | >57
O=C(c1ccccc1)N(Cc1ccc(F)cc1)C1CCS(=O)(=O)C1 (stereo not given)
    8% | >57
CCOCCn1c(CN2CCN(c3ccc(F)cc3)CC2)nc2c1c(=O)n(C)c(=O)n2C
    x | >57
CCCC(=O)N(c1ccc(OCC)cc1)C1C=CS(=O)(=O)C1 (stereo not given)
    -5% | >57
COCCNC(=O)C1CCN(S(=O)(=O)N2CCC3(CC2)OCCO3)CC1
    0% | >57
CCc1ccccc1-n1c(SCC(=O)Nc2ccc3c(c2)OCCO3)nc2[nH]ncc2c1=O
    -6% | >57
COc1ccc(-c2cn3c(C)c(C(=O)NC(C)C)sc3n2)cc1
    1% | >57
CCn1c(SCC(=O)N2CCOCC2)nc2oc3c(Cl)cc(Cl)cc3c(=O)c2c1=O
    -5% | >57
CCCC(c1nnnn1Cc1ccc(OC)cc1)N1CCC(C(N)=O)CC1 (stereo not given)
    7% | >57
Cc1nc2ccc(NC(=O)Nc3ccnc4cccnc34)cc2o1
    u | >57
OC1CN=C2CCCc3c2n(c2ccc(Cl)cc32)C1 (stereo not given)
    -16% | >57
NCCOc1ccccc1-c1ccccc1
    u | >57
Brc1ccc(-c2nnc3sc(CN4CCC5(CC4)OCCO5)cn23)cc1
    -7% | >57
Cc1ccc(S(=O)(=O)OC[C@@H]2CN3[C@H](c4ccc(Br)cc4)[C@H](C)CC[C@H]3C(=O)O2)cc1
    -1%[8 µM] | x
O=C(CN1C(=O)COc2ccccc21)N(Cc1ccccc1)Cc1ccccn1
    -23% | >57
COC(=O)c1[nH]c2cc(OC)ccc2c1NC(=O)CCN1CCN(c2cccc(C)c2C)CC1
    u | >57
O=C(c1sc2ccccc2c1Cl)N(Cc1cccs1)C1CCS(=O)(=O)C1 (stereo not given)
    u | >57
Cc1cc(N)c2ccccc2[n+]1CCCCCCCCCCCCCC[n+]1c(C)cc(N)c2ccccc21
    u | >57
O=S(=O)(c1cccc2nsnc12)N1CCc2ccccc21
    -3% | >57
CC(C)OCCCNC(=O)Cn1ncc2c(=O)oc3ccccc3c21
    5% | >57
COC(=O)c1ccc(C(=O)OC)c(NC2=NS(=O)(=O)c3ccccc32)c1
    18% | >57
CC1CCN(C(c2ccc(N(C)C)cc2)c2nnnn2Cc2ccc(F)cc2)CC1 (stereo not given)
    -21% | >57
CC(C)(C)c1nc(CN2CCCCC2)cc(CN2CCCCC2)c1O
    14% | x
O=C1CC(c2ccc(Cl)cc2)CC(O)=C1C=NCCN1CCNCC1 (stereo not given)
    -1% | x
c1ccc(CCNCc2ccco2)nc1
    -2%[8 µM] | >57
CCn1c2ccccc2c2nnc(SCC(=O)NC(C(=O)OC)C(C)C)nc21 (stereo not given)
    12% | >57
C[C@@H]1C(=O)NC2=Nc3cccc(Cl)c3CN21
    -2% | >57

Quoted from the listing.
Entry for `CC(C)(C)c1nc(CN2CCCCC2)cc(CN2CCCCC2)c1O` in Anthrax LT inh: 14%
Entry for `O=S(=O)(c1cccc2nsnc12)N1CCc2ccccc21` in SmPrx2 inh: >57
Entry for `COC(=O)c1ccc(C(=O)OC)c(NC2=NS(=O)(=O)c3ccccc32)c1` in SmPrx2 inh: >57
Entry for `Cc1cc(N)c2ccccc2[n+]1CCCCCCCCCCCCCC[n+]1c(C)cc(N)c2ccccc21` in SmPrx2 inh: >57
Entry for `O=C1CC(c2ccc(Cl)cc2)CC(O)=C1C=NCCN1CCNCC1` (stereo not given) in Anthrax LT inh: -1%
